# RE007 growth inh – less growth of the S. pombe RE007 Vpr strain | 360,000 tested, 0.21% active | Potency, µM (titrated, usually from 92.2 µM), inactives show at the highest dose activity change, negative = less growth | S. pombe RE007 Vpr strain, BacTiter-Glo ATP luminescence, 24 h; control for the full effect not named in the record | AID 651644; active = well fitted falling curve with a large enough effect; inconclusive = small, poorly fitted or top-dose-only effect; inactive = no such curve, though single readings can be large or run the other way;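 also: % is scaled to controls: 0 for no effect and ±100 for the full control effect; nearly all actives have a fitted effect of over 50% in size; the assay follows cell death caused by Vpr and the record does not say whether a fall means rescue or toxicity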
#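 Fission yeast strain RE007, carrying one chromosomally integrated HIV-1 vpr copy, was seeded at OD 0.01 in PMG+AL medium with 23 nL pinned compound. After 24 h at 30 °C and 99% humidity, viability was read by BacTiter-Glo luminescence.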
# SARS PLpro yeast – inhibitors of SARS-CoV papain-like protease in yeast; 330,000 tested, 0.19% active; AID 485353; Potency, µM (highest dose often 32.9 µM), for inactives: at the top dose activity, positive = growth rescue; S. cerevisiae expressing SARS-CoV PLpro, growth rescue; control for the full effect not named in the record; active means well fitted rising curve with a large enough effect; inconclusive means small, poorly fitted or top-dose-only effect; inactive means no such curve, though single readings can be large or run the other way; also: 0% is about no effect; nearly all actives have a fitted effect of over 55% in size; growth read by luminescence after 48 h
# LASV entry inh – Lassa virus entry inhibition; AID 540256; Potency, µM (highest dose often 37.9 µM), without a hit: at the highest dose activity change, negative = inhibition, most hits filed as inhibitors; Lassa virus pseudotype entry inhibition, cell reporter; control for the full effect not named in the record; 300,000 tested, 1.2% active; active means well fitted inhibition curve with a large enough effect; inconclusive means small, poorly fitted or top-dose-only effect, or effect the other way; inactive means flat fitted curve, though single readings scatter; tested in HEK293 cells; also: % is scaled to controls: 0 for no effect and ±100 for the full control effect; nearly all actives have a fitted effect of over 50% in size; luciferase read-out
# Cruzain inh Det – cruzain (T. cruzi) inhibition with detergent; P25779; purified cruzain, Z-FR-AMC fluorescence, 0.01% Triton; Potency, µM, for the others: max response, negative = inhibition, usual class: inhibitors; 200,000 tested, 0.43% active;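 also: plate controls were neutral wells for no effect and buffer without enzyme for full effect; nearly all actives have a fitted effect of over 40% in size; top concentration of the series not given in the record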
# Target sequence (P25779 123-467 limits assumed): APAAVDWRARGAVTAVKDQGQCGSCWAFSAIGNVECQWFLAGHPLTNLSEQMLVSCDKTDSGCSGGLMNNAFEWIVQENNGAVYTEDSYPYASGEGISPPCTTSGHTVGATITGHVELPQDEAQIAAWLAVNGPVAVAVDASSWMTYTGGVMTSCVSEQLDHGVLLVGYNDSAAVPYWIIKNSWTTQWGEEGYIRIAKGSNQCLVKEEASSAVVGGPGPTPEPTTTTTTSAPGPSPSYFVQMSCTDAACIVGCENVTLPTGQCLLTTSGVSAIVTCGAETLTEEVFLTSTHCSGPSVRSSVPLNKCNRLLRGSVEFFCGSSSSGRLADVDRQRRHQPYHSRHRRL
#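 Steps: dispense cruzain (1.5 nM final) in acetate buffer pH 5.5 with DTT and 0.01% Triton X-100; pin-transfer compounds; incubate 15 min RT; add Z-FR-AMC (2 uM final); read fluorescence every 30 s, using the 60 s intensity change.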
# Marburg entry inh – Marburg virus entry inhibition; Potency, µM (titrated, usually from 37.8 µM), for inactives: top-dose activity change, negative = inhibition, hits mostly inhibitors; Marburg virus pseudotyped entry inhibition, cell reporter; control for the full effect not named in the record; about a third of the inactives were read at about 46 µM; AID 540276; 300,000 tested, 1.8% active; active = well fitted inhibition curve with a large enough effect; inconclusive = small, poorly fitted or top-dose-only effect, or effect the other way; inactive = flat fitted curve, though single readings scatter; tested in HEK293 cells; about a fifth of its hits are not listed in these tables; also: % is scaled to controls: 0 for no effect and ±100 for the full control effect; luciferase read-out
# NS1 inh – inhibitors of influenza NS1 protein function; Potency, µM (titrated, usually from 46.1 µM), without a hit: top-dose activity, positive = more growth; 270,000 tested, 0.4% active; S. cerevisiae slowed by influenza A NS1, growth recovery by OD600; active means well fitted rising curve with a large enough effect; inconclusive means small, poorly fitted or top-dose-only effect; inactive means no such curve, though single readings can be large or run the other way; also: nearly all actives have a fitted effect of over 50% in size
#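 S. cerevisiae expressing influenza A NS1, grown in glucose, washed, then diluted 1:100 into pH 6.0 -URA galactose medium with 23 nl compound. Growth recovery read as OD600; NS1-free strain serves as control.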
# 2A StopGo – lowers the luciferase signal of an FMDV 2A StopGo reporter; human cells with a luciferase reporter of 2A StopGo recoding; control for the full effect not named in the record; Potency, µM (top dose mostly 57.9 µM), without a hit: at the top dose signal change, negative = less light; 410,000 tested, 1.2% active; AID 1159524; active = well fitted falling curve with a large enough effect; inconclusive = small, poorly fitted or top-dose-only effect; inactive = no such curve, though single readings can be large or run the other way; tested in HEK293T cells; also: % is scaled to controls: 0 for no effect and ±100 for the full control effect; nearly all actives have a fitted effect of over 45% in size; luciferase light after 4 h
# Cruzain inh noDet – cruzain (T. cruzi) inhibition without detergent; 200,000 tested, 2.3% active; P25779; Potency, µM, inactives show max response, negative = inhibition, usual class: inhibitors; purified cruzain, Z-FR-AMC fluorescence, no detergent; AID 1476;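 also: plate controls were enzyme without inhibitor for no effect and buffer without enzyme for full effect; nearly all actives have a fitted effect of over 40% in size; top concentration of the series not given in the record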
#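 Detergent-free condition (0.00005% Triton X-100) in acetate buffer pH 5.5 with DTT. 1.5 nM enzyme and compound were pre-mixed 15 min, then 2 uM Z-FR-AMC substrate added; reaction progress from fluorescence change between first and third reads (60 s).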
# An asterisk follows results filed as active; u = inconclusive; x = no result given; & = joins results of further samples; [ ] = another dose, or the depositor's remark. Unless noted, calls follow the shape of the dose curve; as a rule, active = well fitted curve in the direction sought with a large enough effect; inconclusive = small, poorly fitted or top-dose-only effect, or another doubt; inactive = no such curve, though single readings can be large; an effect the other way counts as inactive or inconclusive. Potency is read from the fitted curve at half-maximal effect.
SMILES,RE007 growth inh,SARS PLpro yeast,LASV entry inh,Cruzain inh Det,Marburg entry inh,NS1 inh,2A StopGo,Cruzain inh noDet
Fc1ccc(C2CC(c3ccco3)=NN2c2ccccc2)cc1 (configuration not stated),-5%,-26%,-6%,-3.3%,u,11%,-1%,u
OC(C#Cc1ccccn1)c1cccs1 (configuration not stated),-32%,-2%,-26%,-17%,u,-6%,4%,-14%
O=S(=O)(c1ccc(OCC(O)CNC23CC4CC(CC(C4)C2)C3)c(Cl)c1)N1CCOCC1 (configuration not stated),4%,0%,-3%[46.1 µM],x,2µM*,11%,-1%,x
Clc1ccc(CNC2CCN(Cc3ccccc3)CC2)cc1,0%,2%,-18%[46.1 µM],x,10µM*,-5%,-26%,x
CNC(=O)COc1ncnc2sc(C)c(C)c12,6%,-1%,9%,-0.1%,-10%,15%,-19%,0%
O=C(Nc1ccccc1C(=O)NCCc1ccccc1)c1ccco1,-6%,-6%,-14%,-3.5%,-22%,-63%,-7%,6%
O=C(O)CCCC(=O)Nc1nc(-c2ccccc2)cs1,-7%,-2%,4%,-1.6%,7%[46.1 µM],-3%,-2%,-8%
CCCCCCCCCC(=O)N/N=C/c1ccc(C)s1,1%,-5%,9.2µM*,-6.9%,u,0%,0%,-4%
CCOC(=O)C1=C(C)NC2=C(C(=O)CC(C)(C)C2)C1c1cccc(C)n1 (configuration not stated),1%,7%,-1%,-1.8%,7%,5%,1%,-6%
CC(C)C(NC(=O)c1ccc(F)cc1)C(=O)OCC(=O)N1CC(=O)Nc2ccccc21 (configuration not stated),12%,8%,3%,-0.9%,5%,2%,-14%,-5%
N#Cc1ccc(CSc2nnc(-c3ccncc3)o2)cc1,7%,0%,-25%[46.1 µM],x,0%[46.1 µM],x,-10%,x
O=C(CSc1nnc(-c2cccc(F)c2)o1)N1CCOCC1,6%,6%,10%[46.1 µM],x,9%[46.1 µM],u,22%,x
COc1ccc(CC(=O)Nc2ccc(C(=O)Nc3ccccc3C(=O)O)cc2)cc1OC,-1%,29%,8%,-9.7%,-16%[46.1 µM],-1%,-4%,-3%
O=C(COC(=O)/C=C/c1ccccc1Cl)NCc1ccco1,-24%,-1%,10%,x,3%[46.1 µM],x,16%,x
Cn1c(=O)[nH]c(=O)c2c1nc(N1CCCCCC1)n2CCSc1nc2ccccc2o1,4%,-1%,x,x,x,-17%,0%,x
COc1cc(NC(=O)c2ccco2)c(C(=O)OCC(=O)Nc2ncc(Cl)cc2Cl)cc1OC,8%,-3%,5%,-1.7%,-2%,3%,-24%,17%
CC(C)OCCCNC(=O)C(=O)Nc1c2c(nn1-c1ccccc1)CS(=O)(=O)C2,x,x,13%[46.1 µM],-1.2%,x,x,-15%,0%
CCn1cc(Br)c(C(=O)Nc2ccc(Cl)cc2Cl)n1,-19%,-5%,11%,-3.1%,20%,-78%,34%[activator],-10%
CC(=O)OC/C=C(\C)CCC=C(C)C,-5%,-11%,x,10%,x,x,0%,4%
CCOC(=O)CSc1nc(-c2ccc(Cl)cc2)cc(C(F)(F)F)c1C#N,x,x,21%[46.1 µM],1.1%,-18%[46.1 µM],x,0%,-13%
COC(=O)c1ccc(Cn2nc(C)c([N+](=O)[O-])c2C)o1,0%,-1%,x,x,x,-3%,-7%,x
CC(c1ccncn1)N(C)C(=O)c1ccc2oc(Cc3ccccc3)nc2c1 (configuration not stated),-2%,4%,1%,x,u,-3%,51%[activator],x
CC1CN(C(C)C)C(C)CC1OC(=O)c1ccccc1 (configuration not stated),-9%,9%,x,x,x,10%,3%,x
CC(C)(C)N1CCC1CN (configuration not stated),1%,-1%,u,x,4%[46.1 µM],-1%,31%,x
N#Cc1ccccc1NC(=O)COC(=O)CCc1ccc(S(=O)(=O)N2CCCCC2)cc1,-18%,-13%,2%,-4.2%,16%,-20%,-10%,-7%
CCN(CC)CCCNC(=O)c1[nH]c(C)c(C(=O)NC2CCCCC2)c1C,-11%,6%,-2%,5.4%,1%,3%,6%,-2%
COc1ccccc1CC(=O)Nc1ccc2c(c1)C(=O)NC2=O,0%,1%,10%[46.1 µM],x,7%[46.1 µM],-4%,-4%,x
COc1ccccc1C(=O)NC(=O)COC(=O)CN1C(=O)NC2(CCCCC2C)C1=O (configuration not stated),-23%,-3%,10%,x,10%[46.1 µM],x,-18%,x
COCc1cc(C)nc(SCC[N+](C)(C)CC(=O)c2ccccc2)c1C#N,-12%,-1%,1%,x,0%,x,-6%,x
Cn1c(=O)n(C)c2cc(NS(=O)(=O)c3ccc(Br)cc3)c(NCc3ccccc3)cc21,x,x,u,-2.5%,u,x,37%[activator],4%
O=C(OC1CCOC1=O)C1CCN(S(=O)(=O)c2ccc(Cl)c(C(F)(F)F)c2)CC1 (configuration not stated),-18%,-1%,-3%,x,-11%,x,-19%,x
CC(=O)c1c(C)[nH]c(C(=O)Nc2ccc(C)c(C)c2)c1C,2%,-10%,2%,-3.0%,22%,3%,72%[activator],-1%
COc1ccc(-n2c(C)cc(/C=C3\C(=O)NN(c4ccccc4)C3=O)c2C)cc1,-9%,2%,8%,-5.9%,17%,12%,47%[activator],-12%
Cc1cc(C)n(CCCNC(=O)c2ccc(C)c(S(=O)(=O)N3CCOCC3)c2)n1,6%,3%,-7%,x,4%,x,-15%,x
CCOC(=O)c1c(C2COc3ccccc3O2)csc1NC(=O)c1ccccc1 (configuration not stated),-2%,-4%,-30%,-13%,-21%,-1%,-6%,25µM*
CCOc1ccc(S(=O)(=O)N(C)CC(=O)NCc2ccc3c(c2)OCO3)cc1,1%,-1%,1%[46.1 µM],x,4%[46.1 µM],-3%,14%,x
Cc1nc(NC(=O)COc2ccccc2)sc1C(=O)Nc1ccccc1,0%,-17%,-2%,-3.8%,-11%,25%,1%,-12%
Cc1ccc(SCc2c(C(=O)N/N=C/C3CC=CCC3)nnn2-c2nonc2N)cc1 (configuration not stated),7%,1%,-13%,x,-15%,u,-5%,x
CCC(=O)N1CCc2cc(S(=O)(=O)NC(C(=O)NCCc3cccc(C)c3)C(C)C)ccc21 (configuration not stated),x,x,6%[46.1 µM],-1.8%,9%[46.1 µM],x,-12%,7%
COc1ccc(Cn2ccnc2SCC(=O)NC2CCCC2)cc1,3%,u,u,1.5%,-10%&-10%,3%,-21%&-1%,0%
COc1ccc(CNC(=O)COC(=O)/C=C/c2ccco2)cc1,-4%,1%,1%,x,-1%,x,19%,x
CC1CN(C(=O)c2cc3ccccc3oc2=O)CC(C)O1 (configuration not stated),14%,3%,23%,1.1%,-1%,-3%,x,0%
COc1ccc(NC(=O)c2ccco2)cc1NC(=O)COc1ccccc1,-22%,-13%,-15%[46.1 µM],-6.1%,9%[46.1 µM],-17%,-15%&-7%,-12%
C/C(=N\N=C(/N)SC1CC(=O)N(c2ccc(Cl)cc2)C1=O)c1cccs1 (configuration not stated),18%,-26%,x,-16%,-2%,-29%,-5%,-4%
Cc1c(NS(=O)(=O)c2ccccc2F)c(=O)n(-c2ccccc2)n1C,34%,3%,19%[46.1 µM],x,4%[46.1 µM],10%,-6%,x
COc1ccc(CNC(=O)C2CCCN2S(=O)(=O)c2ccc(C)cc2)cc1 (configuration not stated),8%,2%,-19%,3.7%,-25%,-3%,2%,-5%
COc1ccc(CCNS(=O)(=O)c2ccc(C3CNC(=O)C3)cc2)cc1OC (configuration not stated),0%,-9%,-14%,2.4%,1%,-4%,x,1%
OCCN1CCN(C(=S)Nc2ccc(Oc3ccccc3)cc2)CC1,-9%,3%,x,x,x,0%,-6%,x
Cc1ccc(S(=O)(=O)NC(C)(C)CN2CCCCC2)cc1,-10%,13%,x,x,x,-1%,-2%,x
COCCCNC(=O)C1CCN(C(=O)c2ccc(-n3ccc4ccccc43)s2)CC1,x,x,u,-5.3%,x,x,17%,u

# The results go on.
SMILES,RE007 growth inh,SARS PLpro yeast,LASV entry inh,Cruzain inh Det,Marburg entry inh,NS1 inh,2A StopGo,Cruzain inh noDet
Nc1nnc(CC(=O)N/N=C\c2ccc(-c3cccc(Cl)c3)o2)s1,-9%,-1%,x,x,x,6%,-16%,x
CC(=O)c1c(C)[nH]c(-c2ccccc2)c1C,-8%,-15%,0%,-2.4%,-3%,-22%,-5%,4%
Cc1ccc(N2CC(C(=O)NCc3cccnc3)CC2=O)cc1 (configuration not stated),11%,15%,-7%,-1.3%,-12%,-2%,x,-1%
CN1/C(=N\O)c2cccc3cccc1c23,-10%,-5%,-16%,-4.8%,-4%,-8%,-11%,-6%
O=C(CSc1nnc(NC(=O)C2CCC2)s1)NC1CC1,13%,u,4%,5.0%,-1%,3%,-20%,3%
ClC(Br)=C(n1cnc2ccccc21)n1cnc2ccccc21,-11%,0%,20%,2.8%,-28%&-28%,-7%,u,20%
O=C(NCc1ccccc1)c1onc(CSc2ccc(Cl)cc2)c1C(=O)NCc1ccccc1,-5%,0%,x,x,x,1%,-22%,x
Cc1ccc(Cl)cc1NC(=O)c1sc2nc(-c3ccccc3)cn2c1C,x,x,13%[46.1 µM],-3.7%,x,x,-10%,4%
CCNC(=S)Nc1cc(OCC)c(NC(=O)c2cccs2)cc1OCC,0%,3%,-9%,-2.7%,u,0%,-24%,1%
COc1ccc(CN2C(=O)CS/C2=N/N=C/c2cccs2)cc1,24%,-2%,23%,x,5%[46.1 µM],-23%,-8%,x
COc1ccc(-c2nnc(Nc3nc4c(OC)cccc4s3)o2)c(OC)c1,10%,5%,u,6.9%,u,-17%,x,u
CCn1c(SCC(=O)NCc2ccccc2)nc2nc3c(cc2c1=O)CCCC3,-1%,1%,-2%,x,-4%[46.1 µM],-3%,-19%,x
O=C(NCCN1CCOCC1)c1sc2ccccc2c1Cl,1%,-2%,4%,x,-23%[46.1 µM],-8%,0%,x
Cc1ccc(NC(=O)Nc2csc3c2CCCC3)c(C)c1,x,x,x,0.3%,0%[46.1 µM],x,6%,-2%
FC(F)(F)c1cccc(-c2ccn3ncnc3n2)c1,14%,-6%,-38%,x,u,x,0%,x
